# RE007 growth inh = less growth of the S. pombe RE007 Vpr strain; S. pombe RE007 Vpr strain, BacTiter-Glo ATP luminescence, 24 h; control for the full effect not named in the record; Potency, µM (highest dose often 92.2 µM), without a hit: at the top dose activity change, negative = less growth; actives 0.21% (n = 360,000); active = well fitted falling curve with a large enough effect; inconclusive = small, poorly fitted or top-dose-only effect; inactive = no such curve, though single readings can be large or run the other way;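 further: on the % scale 0 is the no-effect control and ±100 the full control effect; nearly all actives have a fitted effect of over 50% in size; the assay follows cell death caused by Vpr and the record does not say whether a fall means rescue or toxicity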
#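 Fission yeast strain RE007, carrying one chromosomally integrated HIV-1 vpr copy, was seeded at OD 0.01 in PMG+AL medium with 23 nL pinned compound. After 24 h at 30 °C and 99% humidity, viability was read by BacTiter-Glo luminescence.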
# 2A StopGo = lowers the luciferase signal of an FMDV 2A StopGo reporter; Potency, µM (titrated, usually from 57.9 µM), for the others: at the highest dose signal change, negative = less light; human cells with a luciferase reporter of 2A StopGo recoding; control for the full effect not named in the record; actives 1.2% (n = 410,000); active = well fitted falling curve with a large enough effect; inconclusive = small, poorly fitted or top-dose-only effect; inactive = no such curve, though single readings can be large or run the other way; tested in HEK293T cells; further: on the % scale 0 is the no-effect control and ±100 the full control effect; nearly all actives have a fitted effect of over 45% in size; luciferase light after 4 h
# NS1 inh = influenza NS1 inhibition; S. cerevisiae slowed by influenza A NS1, growth recovery by OD600; Potency, µM (series often up to 46.1 µM), without a hit: top-dose activity, positive = more growth; actives 0.4% (n = 270,000); AID 2326; further: actives are rising curves; nearly all actives have a fitted effect of over 50% in size
#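 S. cerevisiae expressing influenza A NS1, grown in glucose, washed, then diluted 1:100 into pH 6.0 -URA galactose medium with 23 nl compound. Growth recovery read as OD600; NS1-free strain serves as control.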
# MARV entry inh = inhibitors of Marburg virus binding or cell entry | Marburg virus pseudotyped entry inhibition, cell reporter; control for the full effect not named in the record; about a third of the inactives were read at about 46 µM | Potency, µM (series often up to 37.8 µM), for the others: at the highest dose activity change, negative = inhibition, most hits filed as inhibitors | actives 1.8% (n = 300,000) | AID 540276; active = well fitted inhibition curve with a large enough effect; inconclusive = small, poorly fitted or top-dose-only effect, or effect the other way; inactive = flat fitted curve, though single readings scatter; tested in HEK293 cells; about a fifth of its hits are not listed in these tables; further: on the % scale 0 is the no-effect control and ±100 the full control effect; luciferase read-out
# Cruzain Triton = inhibitors of Trypanosoma cruzi cruzain with detergent; P25779; purified cruzain, Z-FR-AMC fluorescence, 0.01% Triton; Potency, µM, without a hit: max response, negative = inhibition, usual class: inhibitors; actives 0.43% (n = 200,000); AID 1478; active means well fitted curve in the direction sought with a large enough effect; inconclusive means small, poorly fitted or top-dose-only effect, or another doubt; inactive means no such curve, though single readings can be large; an effect the other way counts as inactive or inconclusive;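 further: plate controls were neutral wells for no effect and buffer without enzyme for full effect; nearly all actives have a fitted effect of over 40% in size; top concentration of the series not given in the record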
# Target sequence (P25779 123-467 limits assumed): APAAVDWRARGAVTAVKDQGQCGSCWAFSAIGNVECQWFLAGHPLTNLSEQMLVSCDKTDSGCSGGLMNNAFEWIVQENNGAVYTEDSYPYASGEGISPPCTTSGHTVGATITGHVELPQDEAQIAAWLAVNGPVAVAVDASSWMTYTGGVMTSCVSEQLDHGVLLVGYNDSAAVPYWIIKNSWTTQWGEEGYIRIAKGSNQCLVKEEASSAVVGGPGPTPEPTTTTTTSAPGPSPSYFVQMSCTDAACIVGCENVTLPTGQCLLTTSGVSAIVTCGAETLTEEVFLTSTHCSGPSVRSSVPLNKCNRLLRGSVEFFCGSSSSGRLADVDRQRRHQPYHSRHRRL
#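 Z-FR-AMC hydrolysis (2 uM substrate) by cruzain (1.5 nM) monitored kinetically at ex 360/em 450 nm after 15 min room-temperature compound exposure; 0.01% Triton X-100, pH 5.5, 5 mM DTT.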
# SARS PLpro yeast = SARS-CoV PLP inhibition in yeast. Potency, µM (series often up to 32.9 µM), for the others: at the highest dose activity, positive = growth rescue. actives 0.19% (n = 330,000). S. cerevisiae expressing SARS-CoV PLpro, growth rescue; control for the full effect not named in the record. AID 485353; further: 0% is about no effect; nearly all actives have a fitted effect of over 55% in size; growth read by luminescence after 48 h
# Cruzain noTriton = blocks cruzain activity in detergent-free assay. purified cruzain, Z-FR-AMC fluorescence, no detergent. Potency, µM, for the others: max response, negative = inhibition, actives largely listed as inhibitors. actives 2.3% (n = 200,000). AID 1476; active means well fitted curve in the direction sought with a large enough effect; inconclusive means small, poorly fitted or top-dose-only effect, or another doubt; inactive means no such curve, though single readings can be large; an effect the other way counts as inactive or inconclusive;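 further: plate controls were enzyme without inhibitor for no effect and buffer without enzyme for full effect; nearly all actives have a fitted effect of over 40% in size; top concentration of the series not given in the record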
#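 Detergent-free condition (0.00005% Triton X-100) in acetate buffer pH 5.5 with DTT. 1.5 nM enzyme and compound were pre-mixed 15 min, then 2 uM Z-FR-AMC substrate added; reaction progress from fluorescence change between first and third reads (60 s).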
# LASV entry inh = Lassa virus entry inhibition | AID 540256 | Lassa virus pseudotype entry inhibition, cell reporter; control for the full effect not named in the record | actives 1.2% (n = 300,000) | Potency, µM (doses to about 37.9 µM), for the others: top-dose activity change, negative = inhibition, actives largely listed as inhibitors; active means well fitted inhibition curve with a large enough effect; inconclusive means small, poorly fitted or top-dose-only effect, or effect the other way; inactive means flat fitted curve, though single readings scatter; tested in HEK293 cells; further: on the % scale 0 is the no-effect control and ±100 the full control effect; nearly all actives have a fitted effect of over 50% in size; luciferase read-out
# Starred values were filed as active, the others as inactive; ? = inconclusive; . = no result given; & = joins results of further samples; [ ] = another dose, or the depositor's remark. Unless noted, the call rests on the fitted dose curve; in most records, active means well fitted rising curve with a large enough effect; inconclusive means small, poorly fitted or top-dose-only effect; inactive means no such curve, though single readings can be large or run the other way. Potency means the concentration at half of the fitted maximal effect.
SMILES,RE007 growth inh,2A StopGo,NS1 inh,MARV entry inh,Cruzain Triton,SARS PLpro yeast,Cruzain noTriton,LASV entry inh
CN(C(=O)CSc1ncc(C(F)(F)F)cc1Cl)c1c(N)n(Cc2ccccc2)c(=O)[nH]c1=O,4%,-15%,13%,?,.,0%,.,-7%[46.1 µM]
CC(C)(C)OC(=O)NC(Cc1ccccc1)C(=O)N1CCCC1C(=O)O (stereo unspecified),7%,-6%,5%,.,.,1%,.,.
Cc1nc(NC(=O)c2ccc(Cl)cc2)nc2cc3c(cc12)OCO3,-1%,-22%,2%,29%,-3.9%,-15%,-8%,6%
Cc1ccc(CNc2ncnc3onc(C)c23)cc1,.,?,.,.,-4.7%,.,-1%,5%[46.1 µM]
CC(C)CCn1cnc2c1c(=O)n(CC(=O)NC(N)=O)c(=O)n2Cc1ccccc1,-9%,16%,-2%,?,.,-5%,.,6%[46.1 µM]
Cc1cccc(C(C)C)c1NC(=O)C1CCN(S(=O)(=O)c2ccccc2)CC1,12%,?,8%,?,.,4%,.,?
Cc1cccc(CC(=O)c2c[nH]c3ccccc23)c1,7%,16%,-2%,-34%[46.1 µM],.,0%,.,13%[46.1 µM]
CC(=O)c1c(C)[nH]c(C(=O)OC2CCCCC2=O)c1C (stereo unspecified),-2%,42%[activator],1%,8%,3.6%,-5%,5%,22%
Cc1cccc(NC(=O)CN(C)C(=O)c2ccc3ccccc3n2)c1C,12%,19%,.,6%,.,-2%,.,19%
Cc1ccc(C(=O)COC(=O)CCC(=O)Nc2ccc(Oc3ccccc3)cc2)cc1,.,4%,.,3%[46.1 µM],-2.4%,.,-24%,-5%[46.1 µM]
CS(=O)(=O)N(CC(=O)N1CCN(c2ccc(F)cc2)CC1)c1cccc(Cl)c1,-5%,-11%,2%,-19%,6.7%,12%,10%,-26%
CCOc1ccc2nc(NC(=O)c3ccc(OC)c(S(=O)(=O)N4CCOCC4)c3)sc2c1,-5%,?,6%,?,-16%,-7%,?,?
CC/C(=N\NC(=O)c1ccccc1Cl)c1c(O)n(C2CCCCC2)c(=O)[nH]c1=O,27%,2%,-32%,.,.,1%,.,.
CNCCCCOc1ccccc1Cc1ccccc1,.,-14%,.,.,-7.6%,4%,-1%,.
Cc1ccc(CSc2nnc(SCC(=O)N/N=C/c3ccccc3OCC(=O)O)s2)cc1,5%,10%,12%,.,.,-3%,.,.
O=C1NC2(CCCCCC2)C(=O)N1Cc1ccccc1F,-3%,3%,1%,12%[46.1 µM],.,1%,.,3%[46.1 µM]
CC(NC(=O)c1nn(C)c(=O)c2ccccc12)c1ccccc1 (stereo unspecified),7%,-24%,-5%,10%,-3.1%,3%,12%,5%
Fc1ccc(NC(=S)N2CCOCC2)cc1Cl,6%,8%,-1%,.,.,0%,.,.
Cc1ccc2c(c1)nnn2C1CCN(C(=O)c2ccccc2F)CC1,-6%,9%,-3%,.,.,1%,.,.
CCCCCOC(=O)c1ccc(NC(=O)c2cccc(NC(=O)c3ccccc3C(=O)O)c2)cc1,5%,-5%,-21%,.,.,2%,.,.
CC(=O)Nc1ccc(S(=O)(=O)N2CC(=O)NC(=O)C2)cc1,-19%,10%,10%,1%[46.1 µM],.,14%,.,?
CCOc1ccc2nc(NC(=O)CN3CCN(CC)CC3)sc2c1,1%,5%,16%,.,.,0%,.,.
COc1ccc(Cc2nnc(SCC(=O)Nc3ccc(N4CCOCC4)cc3)o2)cc1,13%,-7%,8%,1%,.,-1%,.,?
Cc1c(NC(=O)/C(C#N)=C/c2c(Oc3ccccc3)nc3ccccn3c2=O)c(=O)n(-c2ccccc2)n1C,2%,?,11%,?,-1.3%,2%,?,-15%
O=C1CCC/C1=c1\s/c(=C\c2cccnc2)c(=O)n1-c1ccccc1,-13%,?,-6%,?,-8.0%,1%,-13%,5%
COc1ccc(Cl)cc1NC(=O)c1ccc(CN2C(=O)CCn3nc(C)cc32)cc1,.,-29%,.,.,-4.4%,.,?,?
CC1(C)CC(=O)C2=C(C1)NC(Nc1nc3ccccc3o1)=NC21CCCCC1,-4%,-18%,-14%,?,-9.9%,-14%,?,-3%
COc1cccc(CNC(=O)C2CCCN(c3ncnc4onc(-c5ccc(F)cc5)c34)C2)c1 (stereo unspecified),.,-14%,.,.,-3.3%,.,-1%,?
COCCCNS(=O)(=O)c1ccccc1,10%,-11%,?,15%,1.6%,3%,-2%,2%
CC(=O)NCCc1nc2cc(NC(=O)c3cccs3)ccc2n1C,2%,15%,.,12%,.,2%,.,20%
COC(=O)c1cnc(Nc2cccc(C(F)(F)F)c2)c([N+](=O)[O-])c1,-1%,3%,-7%,-8%[46.1 µM],.,0%,.,1%[46.1 µM]
Cc1cccc(C(=O)NCC(=O)OCC(=O)N2CCCCC2)c1,-20%,11%,.,-10%[46.1 µM],.,-3%,.,1%
CCOc1ccccc1NS(=O)(=O)c1ccc2oc(=O)ccc2c1,6%,39%[activator],1%,.,.,-2%,.,.
COc1ccc(-c2nnc(SC(C)C(=O)Nc3cccc(Cl)c3)o2)cc1 (stereo unspecified),4%,26%,-101%,?,-7.1%,-18%,10%,?
COc1ccccc1C/C(N)=N/OC(=O)c1cccc([N+](=O)[O-])c1C,5%,-14%,-40%,?,-9.4%,-93%,-6%,?
COc1ccc(C(=O)Nc2cc3c4c(c2)C(C)C(=O)N4CCC3)c(OC)c1 (stereo unspecified),2%,21%,.,13%[46.1 µM],.,5%,.,?
O=c1[nH]c2cc3c(cc2cc1CN(CCCO)C(=S)NCc1ccco1)OCO3,-10%,8%,1%,.,.,0%,.,.
O=C(O)CSc1ncnc2c1oc1ccccc12,-2%,0%,-8%,3%,2.5%,2%,-12%,24%
CC(=O)c1ccc(S(=O)(=O)NC2CC(=O)N(c3cccc(F)c3)C2)cc1 (stereo unspecified),26%,-13%,.,-6%[46.1 µM],.,0%,.,-10%
COc1cc(C)c(S(=O)(=O)N2CCOCC2)cc1C(C)C,9%,.,-18%,3%,-5.4%,-4%,11%,-37%
O=C(O)Cn1c(-c2cscn2)nc2ccccc21,13%,28%,-1%,?,1.8%,3%,-1%,-13%
CCOC(=O)c1c(C)oc2ccc(N(C(=O)c3ccncc3)S(=O)(=O)c3ccc(F)cc3)cc12,.,6%,.,?,-7.5%,.,-6%,-3%[46.1 µM]
Cc1ccc(Cn2c(CN3CCOCC3)nc3c2c(=O)n(C)c(=O)n3C)cc1,3%,-23%,-8%,0%,-3.7%,-2%,2%,-5%
COc1ccc(CCNC(=O)COc2ncnc3ccccc23)cc1OC,6%,-15%,.,-11%,.,1%,.,?
Nc1ccccc1NC(=O)NC(=O)c1ccccc1,4%,50%[activator],-18%,?,.,-12%,.,-21%
O=C1CN(C(=O)NCCC(=O)NC2CCCCC2)c2ccccc2N1,9%,-12%,-6%,.,.,1%,.,.
CCOC(=O)C(CCCCCCC(NC(C)=O)(C(=O)OCC)C(=O)OCC)(NC(C)=O)C(=O)OCC,-6%,-6%,-1%,-8%,.,0%,.,-9%
CC(C)SCCCCOc1ccc2ccccc2c1,-23%,58%[activator],?,10%,-6.0%,3%,11%,?
O=C(O)CC(c1ccc(F)cc1F)N1Cc2ccccc2C1=O (stereo unspecified),-14%,-3%,-2%,-4%[46.1 µM],.,1%,.,-10%[46.1 µM]
O=C(CCSc1ccccc1)Nc1ccc(S(=O)(=O)Nc2ncccn2)cc1,-3%,2%,.,?,.,-2%,.,-20%
COc1ccc(C(Nc2ccccn2)c2ccc3ccc(C)nc3c2O)cc1C (stereo unspecified),.,-25%,.,?,-0.9%,.,?,?
CC(C)NS(=O)(=O)c1ccc(OCC(=O)NC2CCCCCC2)cc1,10%,20%,-1%,13%,.,0%,.,5%
O=C(CN1C(=O)S/C(=C\c2ccccn2)C1=O)Nc1ccccc1,13%,-18%,12%,.,.,0%,.,.
CC1=C(C(=O)Nc2cccnc2)C(c2cccc(O)c2)n2nc(SCc3ccccc3)nc2N1 (stereo unspecified),.,-20%,.,.,-1.4%,.,?,-1%[46.1 µM]
CCOc1cc(C)c(S(=O)(=O)N2CCCCC2)cc1C,17%,1%,-37%,.,.,-3%,.,.
Nc1ncc(S(=O)(=O)NCc2ccccc2F)cn1,.,-9%,.,.,-0.6%,.,1%,17%[46.1 µM]
Cc1ccoc1C(=O)Nc1cccc(Oc2ccccc2)c1,?,26%,-192%,?,-6.1%,-61%,-1%,?
Cc1ccc(Cl)cc1S(=O)(=O)N1CCC(C(=O)NC2CCN(Cc3ccccc3)CC2)CC1,-2%,-14%,-7%,?,.,-2%,.,-12%[46.1 µM]
CN(C)C(=O)CNc1n[nH]c(=S)[nH]c1=O,-3%,0%,1%,.,.,0%,.,.
O=C(c1ccccc1)N1CCCC(C(=O)N2CCc3ccccc3C2)C1 (stereo unspecified),-2%,-15%,2%,6%,4.4%,10%,4%,1%

# More structures.
SMILES,RE007 growth inh,2A StopGo,NS1 inh,MARV entry inh,Cruzain Triton,SARS PLpro yeast,Cruzain noTriton,LASV entry inh
CCN(CC(=O)NC(c1ccccc1)c1ccccc1)Cc1nc2ccccc2c(=O)[nH]1,3%,-10%,-4%,?,?,-1%,5%,?
Cc1cc2oc(C(=O)NC3CCS(=O)(=O)C3)c(C)c2cc1C (stereo unspecified),-8%,-15%,-14%,-3%,2.8%,-4%,9%,-18%
CN1CCN(CCCc2c3c(cc4c2CCC4)CCC3)CC1,-15%,?,0%,?,-2.8%,6%,5%,?
CC(NC(=O)c1ccc2ccccc2n1)c1ccccc1 (stereo unspecified),-18%,-1%,-41%,-9%[46.1 µM],.,-8%,.,?
CN(C)CCCNc1nc(N)c([N+](=O)[O-])c(NCCO)n1,3%,0%,3%,-4%[46.1 µM],.,-1%,.,2%[46.1 µM]
O=C1CCCC2=C1C(c1cccc(O)c1)C1=C(N2)c2ccccc2C1=O (stereo unspecified),-10%,-9%,15%,-10%[46.1 µM],.,-1%,.,-12%[46.1 µM]
CSc1ccc(NC(=O)Nc2cc(C)ccn2)cc1,-10%,-43%,8%&-3%,7.1µM*,5.6%,0%,10%,7.1µM*
COc1ccc2nc3oc(C(=O)NCc4ccccc4OC)cc3cc2c1,.,-6%,.,1%[46.1 µM],-2.0%,.,10%,25%[46.1 µM]
